Bioassay records from PubChem.
HNF4A DNA FP: change in binding of human HNF4 alpha to DNA | AID 1224865 | P41235 | HNF4a-FITC DNA binding, fluorescence polarization, 1 h | actives 0.3% (n = 360,000) | activity change, % at 10 µM; in the data active means activity change above about 30%, passing the limit was not always enough;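 further: controls were the assay level and a saturating level of protein; the project sought stronger binding though the title names inhibitors; some compounds called inactive have numbers as strong as hits; positive values seem to mean higher polarization but the record does not say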
Target sequence (P41235 whole entry, looked up): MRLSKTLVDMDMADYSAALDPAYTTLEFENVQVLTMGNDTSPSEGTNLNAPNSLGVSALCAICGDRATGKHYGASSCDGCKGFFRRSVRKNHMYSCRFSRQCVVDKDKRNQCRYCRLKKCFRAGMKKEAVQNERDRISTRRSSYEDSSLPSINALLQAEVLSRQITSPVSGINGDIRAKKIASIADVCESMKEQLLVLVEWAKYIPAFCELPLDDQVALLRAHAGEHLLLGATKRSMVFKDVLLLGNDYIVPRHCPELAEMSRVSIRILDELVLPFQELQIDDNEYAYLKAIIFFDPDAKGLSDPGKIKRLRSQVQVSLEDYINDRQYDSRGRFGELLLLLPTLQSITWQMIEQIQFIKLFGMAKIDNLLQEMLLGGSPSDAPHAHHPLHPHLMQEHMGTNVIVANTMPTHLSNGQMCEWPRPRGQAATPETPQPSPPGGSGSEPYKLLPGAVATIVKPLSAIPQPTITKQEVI
Ecoli growth: E. coli growth inhibition | OD600 absorbance (concentration not given with the values) | AID 1053175 | actives 0.21% (n = 330,000) | Escherichia coli growth, OD600, 23 h; hits give low values;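 active means OD600 absorbance below the run mean of sample wells minus 3.6 SD, in any replicate, cut at about 0.56 in these data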;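 further: stock transfer was 300 nL into about 60 µL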
Beta2AR agonist: human beta-2 adrenergic receptor agonism by FAP | P07550 | Am2.2-beta2AR cells, FAP receptor internalization, flow cytometry; reference of the scale not given here | response, % (test concentration not listed) | actives 0.43% (n = 340,000) | AID 504454;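 active means response above a set limit, near 3 SD of response in nonfluorescent compounds, cut at about 42% in these data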;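 further: stock transfer was 100 nL into about 11 µL; a reference agonist was the positive control; negative values mostly stem from fluorescent compounds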
LANA-H2B inh: blocks KSHV LANA binding to histone H2A/H2B. Q9QR71. actives 0.6% (n = 320,000). AID 2629. cell-free LANA-H2A/H2B peptide, fluorescence polarization. inhibition, % (no concentration beside the values); in the data active means inhibition mostly above about 10%, no sharp cut-off; inactive means mostly below about 6.7%;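 further: stock transfer was 7.5 nL into about 10 µL; 0% = median of vehicle wells and 100% = median of positive control wells; one replicate is shown; the record names a cut of 25% in any replicate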
Bfl-1 A1 inh: inhibitors of the anti-apoptotic protein A1, read as caspase activation; MEF A1-2A-BIM cells, Caspase-Glo 3/7 luminescence, 3 h; percent of clofoctol response, vehicle zero; caspase activation, % (test concentration not listed); actives 0.066% (n = 330,000);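 active means over half of replicate activation scores above 10%, or exactly half above 10 with the replicate mean above 10; inconclusive means replicate mean below 10 yet half the replicates above 10; inactive means over half of replicates below 10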;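 further: wells of about 30 µL received 50 nL stock; many hits fall short of the cut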
Vif A3G: inhibitors of Vif binding to APOBEC3G peptide, primary screen, biochemical, TR-FRET, GST-Vif 1-94, biotin-A3G peptide, dose response retest (AID 1117319) | TR-FRET GST-Vif / biotin-A3G peptide binding; higher % means a stronger effect; test concentration not given here; strong numbers were not always called active | one-dose inhibition, %; IC50 in µM for titrated hits | actives 0.57% (n = 260,000);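 active means above the screen mean plus three standard deviations and confirmed in dose response; inconclusive means results disagree or hit not tested in dose response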;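 further: Vif residues 1-94 fused to GST binding biotinylated APOBEC3G peptide 110-148; 0% = full assay without inhibitor and 100% = GST in place of GST-Vif; retest series ran down from 100 µM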
UCH37 inh: inhibitors of human deubiquitinating enzyme UCH37. Q9Y5K5. actives 0.33% (n = 330,000). AID 588478. inhibition, % (concentration not given with the values). purified proteasome/UCH37, Ub-AMC cleavage fluorescence;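 active means mean of two replicates above 20%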;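 further: 0% = compound-free wells with enzyme and 100% = wells lacking proteasome; stock transfer was 100 nL into about 20 µL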
Target sequence (Q9Y5K5 whole entry, looked up): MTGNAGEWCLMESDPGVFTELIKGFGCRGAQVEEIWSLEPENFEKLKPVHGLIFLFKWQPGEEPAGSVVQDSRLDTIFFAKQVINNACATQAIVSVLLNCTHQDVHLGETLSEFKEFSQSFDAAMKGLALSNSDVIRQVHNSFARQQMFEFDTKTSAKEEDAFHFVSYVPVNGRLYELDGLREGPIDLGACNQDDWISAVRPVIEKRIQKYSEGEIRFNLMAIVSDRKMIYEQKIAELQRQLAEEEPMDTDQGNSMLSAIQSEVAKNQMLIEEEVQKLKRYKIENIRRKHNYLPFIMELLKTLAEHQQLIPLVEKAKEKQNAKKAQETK
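Material: Human UCH37 enzyme supplied as purified proteasome complex | Schedule: 30 min compound-proteasome preincubation then 25 min substrate reaction, room temperature | Detection: AMC fluorescence from Ub-AMC cleavage, excitation 355 nm, emission 460 nm | Benchmarks: Wells without proteasome as full block, compound-free enzyme plus substrate as uninhibited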
* = called active by the depositor; ? = inconclusive; · = no result given. Rows were taken by chance; about 2.1% have a hit in one of these screens.

SMILES	HNF4A DNA FP	Ecoli growth	Beta2AR agonist	LANA-H2B inh	Bfl-1 A1 inh	Vif A3G	UCH37 inh
O=C(NCCN1CCOCC1)C1(C(F)(F)F)C/C(=C\Cc2ccccc2)CCCO1 (stereo unspecified)	1.9	·	6.7	1.8	0.4	·	6.1
C=CCNC(=O)CN1CCN(Cc2ccc3c(c2)OCO3)CC1	-1.3	0.616	-5.0	0.4	0.1	·	1.2
Cc1cccc(NC(=O)COC(=O)CCc2c[nH]c3ccccc23)c1C	-0.3	0.626	6.5	3.5	0.7	·	0.6
CCC(C(=O)OCC(=O)NCc1ccc2c(c1)OCO2)c1ccccc1 (stereo unspecified)	3.3	0.706	1.0	-4.8	-1.3	·	0.2
C=CCn1c(SCC(=O)Nc2cc(NC(C)=O)ccc2OC)nnc1-c1cccnc1	2.4	0.717	8.6	2.5	1.4	-1.4%	-0.6
COc1ccc(C(=O)CSc2nnc(C3CC3)n2N)cc1	2.4	0.678	-7.0	-8.1	0.5	3.0%	1.7
CCN1C(=O)c2ccccc2S(=O)(=O)c2ccc(C(=O)NCC(OC)OC)cc21	2.8	0.66	-10.1	3.2	0.8	-2.6%	1.2
CCN(CC)S(=O)(=O)c1cc(F)ccc1OC	0.7	0.778	1.9	-1.8	0.7	·	0.9
Cc1cn2nc(N)c3ccccc3c2n1	-1.1	0.66	2.6	3.7	-0.9	-3.5%	-121.0
CN1CCN(C2=C(Cl)C(=O)N(c3ccc(Cl)c(Cl)c3)C2=O)CC1	-1.7	0.698	12.0	8.0	0.4	-0.3%	1.7
Cc1ccc(-n2c(=O)c3sccc3n(CC(=O)NC3CCCC3)c2=O)cc1	-1.6	0.699	3.9	-2.4	-0.3	·	2.3
O=C(O)CC(SCC(=O)Nc1ccccc1)C(=O)O (stereo unspecified)	-2.2	0.711	3.4	-3.8	0.0	7.3%	0.3
CC(=O)c1ccc(Nc2cc(C)nc3ncnn23)cc1	-3.3	0.658	-4.0	1.4	0.9	·	6.8
Cc1nc(-c2cc(C#N)c(=O)[nH]c2C)cs1	-1.0	0.655	-5.9	1.4	-0.5	·	-98.3
COc1cccc(-c2csc(N3CCN(C(=S)Nc4cccc(C)c4)CC3)n2)c1	3.5	0.641	0.3	6.8	-0.6	·	2.9
CCOc1ccc(CNC(=O)C(C)n2nc(C)c3c(C)n(-c4ccccc4)nc3c2=O)cc1 (stereo unspecified)	6.9	0.66	-4.7	1.0	0.6	·	4.0
N#CCSc1nc2ccccc2c(=O)n1CCC(=O)NC1CCCCC1	-0.3	0.693	-17.7	-6.7	-0.1	-6.8%	3.9
CS(=O)(=O)N1CCC(C(=O)NCc2ccc3c(c2)OCO3)CC1	2.1	0.685	15.6	-1.1	0.1	-3.1%	1.7
Cn1c(N)c(C(=O)NCc2ccccc2Cl)sc1=S	1.4	0.789	-7.9	-1.1	-1.0	-2.6%	3.6
COc1cccc(-c2nc(CS(=O)(=O)CC(=O)Nc3ccccc3Cl)c(C)o2)c1	2.2	0.666	11.1	2.5	1.1	·	2.5
CCn1cc(/C=C/c2cc[n+](C)cc2)c2ccccc21	81.4	0.606	·	-209.6	1.1	-1.7%	20.5*
O=C(NC(NCC1CCCO1)C(Cl)(Cl)Cl)c1cccc2ccccc12 (stereo unspecified)	-3.2	0.686	-3.0	1.0	0.5	0.1%	1.9
O=C(O)C1CC=CCC1C(=O)NC1CCCCC1 (stereo unspecified)	-6.5	0.654	5.5	-0.9	1.0	-14.6%	1.6
Cc1ccccc1CNC(=O)C(=O)Nc1nccs1	1.6	0.715	-6.0	0.4	0.3	5.7%	-6.7
COc1ccc(N2CC(C(=O)OCC(=O)Nc3ccccc3C)CC2=O)cc1 (stereo unspecified)	2.5	0.711	3.4	0.1	-0.5	·	2.6
CN(C)c1ccc(NC(=O)COC(=O)CNC(=O)c2cccs2)cc1	1.7	0.655	5.6	1.6	-1.4	?	-2.3
CCCN(CC(=O)Nc1ccccc1C)C(=O)c1cc(C)oc1C	-4.6	0.668	12.8	-3.1	1.2	0.9%	1.5
CC(C)=CC(=O)OCC(=O)Nc1cc(C)ccc1C	-7.4	0.731	4.5	-3.4	-0.3	27.2%	3.3
Cc1ccccc1-n1nc(C(=O)O)cc1-c1ccccc1	-2.7	0.73	0.5	3.6	-1.1	0.1%	3.6
COc1ccc(COC(=O)NC(C(=O)O)c2ccccc2)cc1 (stereo unspecified)	-1.4	0.646	-7.9	-1.3	0.8	·	3.9
O=C(OCc1ccc(F)cc1)c1cc(=O)c2ccccc2o1	2.2	0.685	-11.7	2.8	0.2	-10.0%	4.8
CCOC(=O)N1CCN(C(=O)CCCn2c(=S)[nH]c3ccc(Br)cc3c2=O)CC1	1.9	0.732	-14.6	-4.8	-0.5	?	2.7
c1ccc(CSc2nccc(-c3ccco3)n2)cc1	1.8	0.65	-13.4	-1.5	0.7	·	2.6
O=c1c2cc(Br)ccc2[nH]c(=S)n1Cc1cccnc1	2.9	·	-14.2	4.3	·	26.2%	·
Cc1ccc(N=Cc2c(O)n(-c3nccs3)c(=O)c3ccccc23)c(C)c1	-47.6	0.703	-4.5	-39.0	-0.5	·	-28.8
CC(C)(C)[C@@H]1C=C(C(N)=O)O[C@H](OCCCCO)C1	2.2	·	3.0	1.3	0.4	·	5.4
CN(C)c1ccc(CN(Cc2ccco2)C(=O)c2ccco2)cc1	-6.7	0.649	4.2	-1.7	-1.2	·	1.9
Cc1cccc(OCC(=O)NCCNC(=O)c2ccco2)c1	1.1	0.695	-0.4	1.4	0.4	·	2.8
O=C1C2CCCN2C(=O)N1CCN1CCN(c2ccccc2)CC1 (stereo unspecified)	-3.7	0.67	3.3	·	0.2	5.3%	0.3
CCCCn1c(SCC(=O)c2ccc(OCC)cc2)nc2cc(S(N)(=O)=O)ccc21	2.5	0.726	-4.6	-6.4	-0.4	3.7%	-1.0
CCn1c(CNC(=O)c2ccco2)nnc1SCCOc1ccccc1	0.4	0.706	-3.1	0.9	0.7	·	-13.5
Cc1ccc(CNc2ccc3nnc(-c4ccccc4)n3n2)cc1	3.3	0.719	-3.2	-2.5	-0.5	-50.0%	2.2
CCN(CC)S(=O)(=O)c1cc(C(=O)NC2=NCCS2)ccc1Cl	3.8	0.725	-9.9	-0.6	-0.2	-0.1%	4.8
O=C(NCCc1ccccc1)C(=O)Nc1nccs1	0.9	0.723	-6.2	9.6	-0.9	·	-6.6
O=C(O)c1ccc(Nc2ncnc3ccccc23)cc1	1.6	0.672	-13.8	-3.0	-0.4	4.3%	0.7
O=C(/C=C/c1ccccc1)NC(NC(=S)Nc1ccc(Cl)cc1Cl)C(Cl)(Cl)Cl (stereo unspecified)	3.4	·	1.1	0.6	-0.1	·	·
CCC(c1ccccc1)C(CC)c1cc(O)c(O)c(O)c1 (stereo unspecified)	-1.4	0.69	3.1	·	·	27.3%	3.1
Cc1cccc(Nc2nc3ccccc3s2)c1C	2.5	0.729	2.3	-2.4	-3.7	·	3.4
CC(C)CN(C(=O)COC(=O)c1ccc2c(c1)NC(=O)CS2)C1CCS(=O)(=O)C1 (stereo unspecified)	-1.6	0.744	-2.1	1.9	2.6	-2.1%	4.3
O=C(NCCc1c[nH]c2ccccc12)C1CCN(S(=O)(=O)c2ccccc2F)CC1	3.4	0.711	8.4	-0.2	-0.5	0.5%	2.7
O=C(CSCc1ccccc1)Nc1cccc(F)c1	2.1	·	7.4	·	0.1	21.3%	5.5
N/C(=N\OC(=O)Nc1ccccc1)c1ncc([N+](=O)[O-])s1	3.4	·	11.4	-0.3	0.2	-11.1%	·
CC(=O)c1ccc(NC(=O)CN2CCN(S(=O)(=O)c3ccc4ccccc4c3)CC2)cc1	3.1	0.666	5.8	-8.3	-0.2	-4.9%	3.1
COc1ccc(Cl)cc1NC(=O)C(C)OC(=O)Cn1cc(C(F)(F)F)ccc1=O (stereo unspecified)	-2.4	0.688	-4.4	3.7	0.9	·	2.1
CCOC(=O)C/C(N)=N/N(C)c1ncc(C(F)(F)F)cc1Cl	-1.4	0.685	1.6	2.2	-0.8	0.2%	3.3
Cc1cc(C(=O)NCC2CCCO2)sc1C (stereo unspecified)	-1.2	0.68	-1.5	·	·	·	0.9
Cc1oc(-c2ccccc2)nc1C(=O)OCC(=O)NC(=O)NCC(C)C	6.2	0.721	-8.4	-0.6	-5.6	5.9%	3.1
C#CCNC(=O)C1=C[C@H](c2ccc(Br)cc2)C[C@H](OCCCCO)O1	1.6	·	-2.5	3.7	-0.7	·	0.2
Cc1c(NC(=O)CSc2nnc(COc3ccccc3)n2-c2ccccc2)c(=O)n(-c2ccccc2)n1C	-1.0	0.716	-14.4	-3.1	1.0	8.5%	-0.9
COc1cc2cc(C(C)(C)O)oc(=O)c2cc1OC	3.6	0.7	-4.5	1.0	-0.8	·	4.7

Carrying on:
SMILES	HNF4A DNA FP	Ecoli growth	Beta2AR agonist	LANA-H2B inh	Bfl-1 A1 inh	Vif A3G	UCH37 inh
Cc1cc(C)c(NC(=O)COC(=O)C2CCN(c3ccc(C(F)(F)F)cn3)CC2)c(Cl)c1	9.1	0.722	1.4	-2.6	1.0	4.8%	1.4
CC1CN(Cc2ccccc2)C(C)CC1O (stereo unspecified)	1.3	0.705	-6.4	1.3	0.9	6.1%	4.1
O=C(Nc1nc(-c2ccccn2)cs1)c1ncc(Cl)c(Cl)c1Cl	1.8	0.779	0.2	3.9	0.0	-0.6%	-1.6
O=S(=O)(c1ccc(Cl)nc1)N1CCCc2ccccc21	1.9	0.676	-4.2	1.7	0.2	·	2.5
COc1ncnc2c1oc1ccccc12	-1.3	0.654	-3.0	4.7	-0.3	·	0.1
COc1cccc(CNC(=O)COC(=O)CCS(=O)(=O)c2ccc(C)cc2)c1	-6.7	0.693	0.9	·	·	-2.1%	-0.1
COc1cc(/C=C/C(O)=C/C(=O)/C=C/c2ccc(O)cc2)ccc1O	122.2	·	-112.0	-2.6	0.0	·	·
CC(C)c1ccccc1NC(=O)CCCC(=O)O	-1.2	0.746	-1.2	1.5	0.4	20.5%	-2.8
Cn1c(=O)c(=O)n(C)c2cc(S(=O)(=O)N3CCOCC3)ccc21	-0.3	0.705	8.9	4.7	-0.4	-3.0%	1.7
Nc1nc(COc2ccc(Cl)cc2)cs1	0.1	0.66	2.9	0.7	-3.7	-13.8%	3.4
COc1ccc(-c2noc(=O)n2Cc2ccc(F)cc2Cl)cc1	0.3	0.683	9.0	-1.1	0.2	-1.7%	2.3
O=C(c1ccco1)N1CCN(c2cc(=O)n(-c3ccc(Cl)cc3)c(=O)[nH]2)CC1	-1.5	0.748	1.9	18.6*	0.4	3.6%	1.9
COc1ccc(C(=O)Nc2cc3c4c(c2)CC(=O)N4CCC3)cc1	4.0	0.673	-1.1	-3.1	-0.3	1.2%	3.2
O=C(c1ccc(COc2ccccc2Cl)o1)N1CCCC1	0.2	0.691	-13.6	0.0	2.0	0.0%	2.5
C=CC[C@@H](CC(=O)N(CCO)Cc1ccccc1)C(=O)N[C@H](COC(=O)[C@H](CC=C)CC(=O)OC(C)(C)C)Cc1c[nH]c2ccccc12	0.1	0.73	-4.7	·	·	4.3%	1.0
COC(=O)c1ccc(-c2csc(NC(=O)c3c(C)noc3C)n2)cc1	3.0	0.685	12.4	·	·	-36.7%	-17.2
CC(=O)N[C@@H](CS)C(=O)O	-0.3	·	-2.8	-4.7	·	23.1%	1.9
